# BJeLR viability – BJeLR cell viability reduction; BJeLR fibroblasts viability, CellTiterGlo ATP luminescence, 48 h; HRASV12, hTERT and SV40 LT/ST transformed; viability loss activity score, % (test concentration not listed); 30,000 tested, 0.64% active; in the data active = viability loss activity score above about 50%; inconclusive = no clear call, values can overlap the other calls; inactive = below about 35%; about a fifth of its hits are not listed in these tables;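 also: higher score means fewer live cells and less ATP luminescence; stock transfer was 50 or 100 nL into about 30 µL; 0% = vehicle wells and 100% = a reference killing control; one replicate is shown; the record names a cut of 85%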
# A1 inh – blocks A1 activity | MEF A1-2A-BIM cells, caspase-Glo luminescence, 3 h; percent of clofoctol signal, DMSO as zero | caspase activation, % (no concentration beside the values) | 21,000 tested, 0.51% active | AID 2241;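 active = most replicate scores above 10, or exactly half above 10 with mean activity above 10; inconclusive = mean activity below 10 while half the replicates exceed 10; inactive = most replicate scores below 10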;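 also: effector caspase 3 and 7 activity cleaving a DEVD luciferin substrate; 50 nL library stock added to about 30 µL; numbers are from one replicate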
# Active calls of the source: *; ? = inconclusive; · = not tested or not shown. Not all compounds are listed (hit frequency here may not be typical).
SMILES,BJeLR viability,A1 inh
CCc1ccc(NC(=O)c2cc3ccccc3oc2=O)cc1,9.4,-6.5
C[C@@H]1CN([C@H](C)CO)C(=O)c2cccc(NS(=O)(=O)c3ccccc3)c2O[C@H]1CN(C)C(=O)Nc1ccc2c(c1)OCO2,-1.5,·
C[C@@H]1CN([C@@H](C)CO)C(=O)c2cccc(NC(=O)Nc3ccccc3)c2O[C@@H]1CN(C)Cc1ccccc1,5.6,·
CCOC(=O)N1CCN(C(=O)CN(C2CCCCC2)S(=O)(=O)c2ccccc2)CC1,14.8,0.7
C=C1C(=O)OC2CC1C(OC(C)=O)C/C(C)=C\CC/C(C)=C\CC[C@]2(C)O (stereo not given in full),11.2,0.6
C[C@H](CO)N1C[C@H](C)[C@@H](CN(C)C(=O)Nc2ccc(F)cc2)Oc2c(cccc2N(C)C)C1=O,-5.2,·
COc1ccc2c(c1)cc(C)c1nnc(SCC(=O)Nc3cccc(C(C)=O)c3)n12,12.4,-0.6
C[C@@H]1CN([C@@H](C)CO)C(=O)c2cccc(NC(=O)c3ccc(-c4nccs4)cc3)c2O[C@@H]1CN(C)CC1CC1,-1.5,·
CC(C)=CCc1c(O)cc(O)c2c1OC(c1ccccc1)CC2=O (stereo not given),-4.4,0.3
C[C@@H]1CN([C@@H](C)CO)C(=O)c2cc(NC(=O)CCC(F)(F)F)ccc2O[C@@H]1CN(C)CC1CC1,-3.1,-0.3
C=C(C)C(O)C(O)c1c(OC)ccc2ccc(=O)oc12 (stereo not given),0.2,0.3
O=C(Nc1sc2c(c1C(=O)Nc1ccccc1)CCCC2)c1ccccc1,6.6,0.0

# Reprinted at random: 5 entries already listed.
SMILES,BJeLR viability,A1 inh
CCc1ccc(NC(=O)c2cc3ccccc3oc2=O)cc1,9.4,-6.5
C[C@@H]1CN([C@@H](C)CO)C(=O)c2cc(NC(=O)CCC(F)(F)F)ccc2O[C@@H]1CN(C)CC1CC1,-3.1,-0.3
O=C(Nc1sc2c(c1C(=O)Nc1ccccc1)CCCC2)c1ccccc1,6.6,0.0
CCOC(=O)N1CCN(C(=O)CN(C2CCCCC2)S(=O)(=O)c2ccccc2)CC1,14.8,0.7
C[C@H](CO)N1C[C@H](C)[C@@H](CN(C)C(=O)Nc2ccc(F)cc2)Oc2c(cccc2N(C)C)C1=O,-5.2,·

# The list goes on.
SMILES,BJeLR viability,A1 inh
O=C(NC1CCCC1)c1cc(=O)[nH]c2ccc(S(=O)(=O)N3CCCC3)cc12,-6.8,·
Cc1noc(C)c1NC(=O)N(C)C[C@@H]1Oc2c(cccc2N(C)C)C(=O)N([C@H](C)CO)C[C@H]1C,-2.2,·
CCCCc1c(O)nc(SCCC(=O)O)[nH]c1=O,-4.2,-0.2
COCCN(C(=O)Nc1ccc(OC)cc1OC)C1CCN(C(C)=O)CC1,-4.6,1.4
CC(C)/C(N)=N/C(=S)Nc1ccccc1,2.0,-1.8
CCc1ccccc1NC(=O)CCCn1sc2ccccc2c1=O,-1.7,0.2
COc1ccc(NC(=O)N(C)C[C@H]2Oc3c(NC(=O)C4CCOCC4)cccc3C(=O)N([C@@H](C)CO)C[C@H]2C)cc1,-4.1,·
COc1ccc(CN(C)C[C@H]2Oc3ccc(NC(=O)CCN4CCOCC4)cc3C(=O)N([C@@H](C)CO)C[C@H]2C)cc1,-1.5,-0.8
Cc1ccc(C(=O)COc2cc(C)nc3nncn23)cc1,-2.0,0.1
Cc1cc(C(=O)Nc2cccc3c2O[C@@H](CN(C)S(=O)(=O)c2cn(C)cn2)[C@@H](C)CN([C@@H](C)CO)C3=O)n(C)n1,5.0,·
COc1ccc2c(c1)-c1nc(NC(=O)c3ccccc3Br)sc1CC2,-7.3,·
CC(=O)N1N=C(c2ccccc2)OC1c1cccnc1 (stereo not given),4.3,-0.2
CCOC(=O)c1c(CN2CCOCC2)n(-c2ccccc2)c2ccc(O)cc12,-0.3,0.3
COc1ccc(S(=O)(=O)Nc2ccc3c(c2)C(=O)N([C@@H](C)CO)C[C@@H](C)[C@H](CN(C)Cc2ccc(Oc4ccccc4)cc2)O3)cc1,-6.5,0.9
C[C@@H]1CN([C@@H](C)CO)C(=O)c2cccc(NC(=O)Nc3ccc(F)cc3)c2O[C@@H]1CN(C)C(=O)Nc1ccc(C(F)(F)F)cc1,-2.3,·
Cc1noc(C)c1NC(=O)Nc1cccc2c1O[C@H](CN(C)C(=O)Nc1ccc(F)cc1)[C@@H](C)CN([C@@H](C)CO)C2=O,-7.1,·
FC(F)(F)c1ccc(Cl)c(Nc2ncnc(-n3cccc3)n2)c1,1.0,0.1
C=CCSc1ncc(-c2ccc(Cl)cc2)n1C,1.6,-0.4
CCSC1=C(C#N)C(=O)NC(CO)S1 (stereo not given),3.2,0.9
CCC(CO)NC(=S)Nc1ccccc1C (stereo not given),-2.1,·
Cc1ccc(C(C)C)c(OCC(=O)Nc2cc(-c3nc4ncccc4o3)ccc2Cl)c1,2.3,·
Cc1ccc(C(=O)C(OC(=O)c2c(C)cc(=O)oc2C)c2ccccc2)cc1 (stereo not given),2.3,·
O=C(NCCc1ccccc1)[C@@H](c1ccccc1)N1Cc2ccccc2C1=O,-1.9,·
C[C@@H]1CN([C@@H](C)CO)C(=O)c2cc(NS(=O)(=O)c3ccc(Cl)cc3)ccc2O[C@H]1CN(C)S(=O)(=O)c1ccc(F)cc1,1.1,0.0

# Entries of single compounds from above. Order of screens: BJeLR viability	A1 inh
# COc1ccc(S(=O)(=O)Nc2ccc3c(c2)C(=O)N([C@@H](C)CO)C[C@@H](C)[C@H](CN(C)Cc2ccc(Oc4ccccc4)cc2)O3)cc1 in the list: -6.5	0.9
# CCOC(=O)c1c(CN2CCOCC2)n(-c2ccccc2)c2ccc(O)cc12 in the list: -0.3	0.3

# (further entries)
SMILES,BJeLR viability,A1 inh
O=C(CSc1nc(-c2cccs2)cc(C(F)(F)F)n1)NCc1ccncc1,0.5,-0.2
C[C@H]1CN([C@@H](C)CO)C(=O)c2cccc(NC(=O)c3nc4ccccc4s3)c2O[C@H]1CN(C)C(=O)Nc1cccc2ccccc12,17.1,·
COc1ccc(S(=O)(=O)Nc2ccc3c(c2)C(=O)N([C@@H](C)CO)C[C@H](C)[C@@H](CN(C)C)O3)cc1,-5.4,0.7
Cc1cccc(Cn2c(CCNC(=O)C(C)(C)C)nc3ccccc32)c1,1.0,-0.8
COc1ccc(C(=O)c2ccccc2)cc1,-3.7,0.2
C[C@H]1CN([C@@H](C)CO)C(=O)c2cccc(NC(=O)Nc3ccc(F)cc3)c2O[C@@H]1CN(C)Cc1ccc(C(F)(F)F)cc1,2.8,·
CCOC(=O)c1cnc(Nc2nc3ccccc3s2)nc1CSc1ncccn1,0.0,0.1
CN(/N=C/c1ncc(C(F)(F)F)cc1Cl)C(=O)c1ccc(Cl)cc1,-5.5,·
C[C@@H]1CN([C@@H](C)CO)C(=O)c2cccc(NC(=O)Nc3ccccc3)c2O[C@H]1CN(C)S(=O)(=O)c1ccc(F)cc1,2.5,·
C[C@@H]1CN([C@H](C)CO)C(=O)c2cc(NC(=O)CCN3CCOCC3)ccc2O[C@H]1CN(C)C(=O)Nc1ccc2c(c1)OCO2,0.0,0.1
C[C@H](CO)N1C[C@H](C)[C@@H](CN(C)C(=O)Nc2ccccc2)Oc2c(NS(=O)(=O)c3ccc(F)cc3)cccc2C1=O,-2.6,·
CCc1ccc(NC2=CC(=O)CC(c3ccco3)C2)cc1 (stereo not given),1.1,-1.0
COc1ccc(CN(C)C[C@@H]2Oc3c(NC(=O)c4cc(C)nn4C)cccc3C(=O)N([C@@H](C)CO)C[C@H]2C)cc1,-5.0,·
N/C(=N\S(=O)(=O)c1ccc(Cl)c(Cl)c1)c1ccccn1,-2.6,0.1
C[C@H](CO)N1C[C@H](C)[C@@H](CN(C)Cc2ccc(-c3ccccc3)cc2)Oc2ccc(NC(=O)Nc3cccc4ccccc34)cc2C1=O,-0.4,-0.4
COc1ccc(NC(=O)Nc2ccc3c(c2)C(=O)N([C@H](C)CO)C[C@@H](C)[C@@H](CN(C)S(=O)(=O)c2ccc(F)cc2)O3)cc1,-1.4,0.2
COC(=O)[C@]1(Cc2ccc(O)c(CC=C(C)C)c2)OC(=O)C(=O)C1c1ccc(O)cc1 (stereo not given in full),2.6,0.1
CN(C)CN1C(=O)c2ccccc2C1=O,-2.3,-0.4
Cc1ccc(C)c(NC(=O)C(C)n2sc3ccccc3c2=O)c1 (stereo not given),1.0,0.3
N=c1oc2ccc3ccccc3c2cc1C(=O)Nc1ccccc1,6.2,?
C[C@H]1CN([C@@H](C)CO)C(=O)c2cc(NC(=O)Cc3cn(C)c4ccccc34)ccc2O[C@@H]1CN(C)C,-1.9,0.5
C[C@@H]1CN([C@@H](C)CO)C(=O)c2cccc(NC(=O)Nc3cccc4ccccc34)c2O[C@H]1CN(C)S(=O)(=O)c1ccccc1,-4.7,·
C[C@H]1CN([C@@H](C)CO)C(=O)c2cccc(NC(=O)C3CC3)c2O[C@H]1CN(C)Cc1ccc(Cl)c(Cl)c1,-0.1,·
CC(C)NC(=O)Nc1cccc2c1O[C@H](CN(C)C(=O)Nc1ccc3c(c1)OCO3)[C@@H](C)CN([C@@H](C)CO)C2=O,-3.8,·
COc1ccc(CN(C)C[C@H]2Oc3c(NS(=O)(=O)c4ccc(C)cc4)cccc3C(=O)N([C@@H](C)CO)C[C@H]2C)cc1,-0.1,·
COc1ccccc1OCCN1CCN(c2ccccc2)CC1,1.6,-0.9
COc1ccc(NC(=O)N(C)C[C@@H]2Oc3c(NS(=O)(=O)c4ccc(C)cc4)cccc3C(=O)N([C@@H](C)CO)C[C@@H]2C)cc1,-0.6,·
COc1ccc(OC)c(C2=NOC(C(=O)N3CCCc4ccccc43)C2)c1 (stereo not given),1.1,·
CCOC(=O)c1c(NC(=O)N2CCOc3ccc(Cl)cc32)sc2c1CCCC2,1.4,0.9
CCCCN1CN=C(Nc2nc(C)c3ccccc3n2)NC1,7.1,·
COc1cccc(Oc2ccc(OC)cc2C(=O)NN)c1,4.1,1.3
O=C(NC(=O)c1ccccc1Cl)c1ccccc1O,2.1,-4.4
Fc1ccc(Nc2cccc3nonc23)cc1,-0.5,0.2
OC[C@H]1O[C@@H](n2cnc3c(NCc4ccco4)ncnc32)[C@H](O)[C@@H]1O,6.4,0.2
CCC[C@@H]1C[C@@H](C(=O)N[C@@H](C2O[C@H](SC)[C@H](O)[C@@H](O)[C@H]2O)[C@H](C)Cl)N(C)C1 (stereo not given in full),3.5,0.8
CC1CCCN(S(=O)(=O)c2ccc3[nH]c(=O)cc(C(=O)NCCCN4CCCCC4C)c3c2)C1 (stereo not given),0.3,-0.3
C[C@H]1CN([C@@H](C)CO)C(=O)c2cccc(NC(=O)Nc3ccc(F)cc3)c2O[C@H]1CN(C)Cc1ccncc1,2.8,·
CCC(=O)N1CCc2cc(S(=O)(=O)NCCC(=O)Nc3ccc(Br)cc3C)ccc21,-0.6,·
Cc1ccc(S(=O)(=O)N(C)C[C@@H]2Oc3ccc(NS(C)(=O)=O)cc3C(=O)N([C@H](C)CO)C[C@@H]2C)cc1,-0.9,-0.6
CCOC(=O)C1=C(CS(=O)(=O)c2ccccc2)NC(=O)NC1c1ccc(SC)cc1 (stereo not given),7.4,0.5
C/C1=C/CC(=O)C(C)C[C@H]2OC(=O)[C@H](C)C2[C@@H](O)C1 (stereo not given in full),·,-1.0
CC(=O)O[C@@H]1[C@@H](O)[C@H](C)O[C@@H](O[C@H]2[C@@H]3C=CO[C@@H](O[C@@H]4O[C@H](CO)[C@@H](O)[C@H](O)[C@H]4O)[C@@H]3[C@@]3(CO)O[C@@H]23)[C@@H]1OC(=O)/C=C/c1ccc(O)cc1,0.6,-0.1
COc1ccc(S(=O)(=O)Nc2ccc3c(c2)C(=O)N([C@@H](C)CO)C[C@@H](C)[C@H](CN(C)C)O3)cc1,2.3,-0.3
O=C(Nc1ccc(Cl)cc1)Nc1ccc(N2CCN(c3ncccc3C(F)(F)F)CC2)nc1,2.7,-0.3
Cc1ccc(S(=O)(=O)N(C)C[C@@H]2Oc3c(NS(=O)(=O)c4ccc(Cl)cc4)cccc3C(=O)N([C@@H](C)CO)C[C@@H]2C)cc1,5.7,·
COc1ccc(NC(=O)Nc2cccc3c2O[C@@H](CN(C)S(=O)(=O)c2ccc(C)cc2)[C@H](C)CN([C@H](C)CO)C3=O)cc1,-3.7,·
C[C@H]1CN([C@@H](C)CO)C(=O)c2cccc(NS(=O)(=O)c3ccc(Cl)cc3)c2O[C@@H]1CN(C)S(=O)(=O)c1ccccc1,3.7,·
CC(C)NC(=O)N(C)C[C@H]1Oc2ccc(NC(=O)Cn3cnnn3)cc2C(=O)N([C@H](C)CO)C[C@H]1C,-2.7,0.1
CC(NC(=O)c1ccc(C(C)(C)C)cc1)c1ccccc1 (stereo not given),-10.5,1.1
OC(c1ccccc1)(c1ccccc1)C1CCN(C(=S)Nc2ccccc2)CC1,0.7,0.3
COc1c2c(c(O)c3c(=O)c4c(OC)c(O)ccc4oc13)C1CCCC(C)(O2)O1 (stereo not given),0.2,-1.2
COc1ccc(CN(C)C[C@H]2Oc3ccc(NC(=O)NC4CCCCC4)cc3C(=O)N([C@@H](C)CO)C[C@@H]2C)cc1,11.7,0.6

# Arranged by count of non-hydrogen atoms (high to low): some entries from above
SMILES,BJeLR viability,A1 inh
C[C@H]1CN([C@@H](C)CO)C(=O)c2cccc(NS(=O)(=O)c3ccc(Cl)cc3)c2O[C@@H]1CN(C)S(=O)(=O)c1ccccc1,3.7,·
COc1c2c(c(O)c3c(=O)c4c(OC)c(O)ccc4oc13)C1CCCC(C)(O2)O1 (stereo not given),0.2,-1.2
CC(NC(=O)c1ccc(C(C)(C)C)cc1)c1ccccc1 (stereo not given),-10.5,1.1

# High-throughput results as filed in PubChem BioAssay.
